# Source: PubChem BioAssay (ICCB-Longwood Screening Facility, Harvard Medical School)
# GIV Gai3 FP – inhibitors of GIV GBA-motif binding to rat Galpha-i3; Galpha-i3/FITC-GIV peptide fluorescence polarization, 90 min; active compounds read low; scaled: aluminum fluoride 0%, vehicle 100%; percent of control (FP), % (concentration not given with the values); 210,000 compounds, 0.42% hits; AID 1224905;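 active = replicate mean at 85% of control or lower, very high polarization wells dropped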;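 also: wells of about 15 µL received 100 nL stock; the first replicate is given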
# Target sequence (P08753 whole entry, looked up): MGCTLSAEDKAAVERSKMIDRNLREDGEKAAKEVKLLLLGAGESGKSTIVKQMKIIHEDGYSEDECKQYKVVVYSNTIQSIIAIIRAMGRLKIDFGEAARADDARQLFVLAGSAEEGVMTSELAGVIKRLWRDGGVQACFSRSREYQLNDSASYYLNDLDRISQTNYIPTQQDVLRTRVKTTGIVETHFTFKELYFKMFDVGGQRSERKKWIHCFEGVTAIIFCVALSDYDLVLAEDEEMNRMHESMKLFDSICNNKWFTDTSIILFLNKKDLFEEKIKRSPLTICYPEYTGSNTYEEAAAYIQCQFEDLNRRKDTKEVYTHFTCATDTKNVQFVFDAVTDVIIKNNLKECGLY
# Active calls of the source: *. Some of the compounds tested; rates above refer to the full screens.
SMILES | GIV Gai3 FP
COc1ccc([C@@H]2[C@@H](C(=O)c3ccccc3)N3c4ccc(Cl)cc4C=C[C@@H]3C2(C#N)C#N)cc1OC | 113
O=S(=O)(c1cccn2c(SCc3c(F)cccc3Cl)nnc12)N1CCCC1 | 104
COc1cc(C2C(C(=O)OCCc3ccccc3)=C(C)NC3=C2C(=O)CC(C)(C)C3)ccc1OC(C)=O (centres undefined) | 99
CN(C1CCCCC1)S(=O)(=O)c1cccc2nonc12 | 110
CCOC(=O)c1c(NC(=O)c2cc3ccccc3oc2=O)sc2c1CC(C)(C)OC2 | 106
c1ccc2c(NCC3CCCO3)nc(SCc3ccncc3)nc2c1 (centres undefined) | 112
CCCCN(CCCC)S(=O)(=O)c1cc2c(c([N+](=O)[O-])c1)-c1c(cc(S(=O)(=O)N(CCCC)CCCC)cc1[N+](=O)[O-])C2=O | 122
Cn1c(SCCOc2ccccc2F)nnc1-c1ccc2c(c1)OCCCO2 | 103
Brc1ccc(-c2csc(-c3cc4c(ccc5ccccc54)oc3=Nc3ccccc3)n2)cc1 | 109
Cc1ccn(CC(C)NC(=O)C2CCc3nc(N4CCC(C)CC4)ncc3C2)n1 (centres undefined) | 101
Fc1cc(F)cc(-c2noc3ncnc(NC4CC4)c23)c1 | 103
Cc1nnc(-c2ccc3ccn(CC(=O)Nc4nccs4)c3c2)o1 | 107
COc1ccc(C2CC(C(F)(F)F)n3ncc(C(=O)N4CCN(c5ccccc5OC)CC4)c3N2)cc1OC (centres undefined) | 105
Cc1ccc(Cl)cc1NC1=NC(=S)N(C(C)C)C12CCCCC2 | 105
O=C(c1nc(-c2csc(S(=O)(=O)N3CCCC3)c2)no1)N1CCOCC1 | 102
CC(C)(C)c1ccc(C(=O)Nc2c3c(nn2-c2ccc(Cl)cc2)CS(=O)(=O)C3)cc1 | 113
O=C(Nc1ccccc1Br)N1CCN(c2cc(-c3ccccc3)ncn2)CC1 | 101
CCOC(=O)C1=C(CSc2nc(C)cc(C)c2C#N)OC(N)=C(C#N)C1c1ccc(F)cc1 (centres undefined) | 107
O=C(CSc1nc(NCc2ccc(Cl)cc2)c2ccccc2n1)N1CCN(c2ccccc2)CC1 | 99
CCC(C)NC(=O)CSc1nc2ccccc2c(=O)n1CCCC(=O)NCCc1ccc(OC)c(OC)c1 (centres undefined) | 111
CN(C)c1ccc(C2C3=C(Nc4ncnn42)c2ccccc2OC3c2ccc(Br)cc2)cc1 (centres undefined) | 98
CCOc1ccc(Nc2ccc3noc4c3c2C(=O)c2ccccc2-4)cc1 | 102
CCSc1nc2n(n1)C(c1ccc(Br)cc1)C(C(=O)Nc1ccccc1C)=C(C)N2 (centres undefined) | 99
CCCCCCN1C(=O)C(=O)/C(=C(\O)c2ccc(C)cc2)C1c1ccc(OC)cc1OC (centres undefined) | 105
O=C1CCCc2oc3c(Br)cc(NS(=O)(=O)c4ccc(Br)cc4)cc3c21 | 112
Cc1ccc(S(=O)(=O)Nc2cccc(-c3nnc(-c4ccccc4)o3)c2)cc1C | 102
COc1ccc(Oc2cc(-c3cccc(C(=O)NCC(C)C)c3)ncn2)cc1 | 107
CCCc1cc(C2CCCN2C(=O)Cn2nc(C(F)(F)F)c3c2CCCC3)no1 (centres undefined) | 105
CCOC(=O)C(C)Oc1ccc2c3c(c(=O)oc2c1)CCCC3 (centres undefined) | 126
Cn1nc(C(=O)N2CCCC(C(=O)NC3CC3)C2)c2c1CCN(C(=O)c1c(F)cccc1F)C2 (centres undefined) | 105
C=CCn1c(=O)c2sc(N3CCCCC3)nc2n(CC(=O)Nc2ccc3c(c2)CCC3)c1=O | 101
COc1ccc(/C=C2N=C(/C=C/c3ccc(Cl)cc3Cl)OC\2=O)c(OC)c1OC | 118
Cc1nc(-c2cc(S(=O)(=O)NCc3cccs3)c(C)s2)sc1C | 100
Cc1ccc(C2=Nc3ccccc3N=C(c3ccccc3)C2)c(O)c1 | 104
CCCCCCOc1ccc(OC(=O)c2cccc(I)c2)cc1 | 111
Cc1nc(-c2cc(S(=O)(=O)NCCCN3CCCC(C)C3)c(C)s2)sc1C (centres undefined) | 106
O=C(Nc1ccccc1C(=O)N1CCN(c2ccccc2)CC1)c1cccc(S(=O)(=O)N2CCOCC2)c1 | 99
CC1(C(=O)NCc2cccnc2)CC2c3ccccc3C1c1ccccc12 (centres undefined) | 111
COc1ccc(OCC(=O)N2CCOc3ccc(COCc4ccccc4)cc3C2)cc1 | 103
Cc1[nH]n(-c2ccccc2)c(=O)c1C(c1ccc(Cl)cc1)c1c(C)[nH]n(-c2ccccc2)c1=O | 110
COCCCNC(=O)c1sc2nc(C)nc(N3CCN(c4ccccn4)CC3)c2c1C | 99
Cc1ccc(NC(=O)c2cn(C)c3c(c(C)nn3-c3ccc(F)cc3)c2=O)cc1F | 107
N#Cc1c(N)nc2sc(C(=O)c3ccc(Br)cc3)c(N)c2c1-c1ccccc1 | 98
NS(=O)(=O)c1ccc(CCNc2ncnc3c2c(-c2ccccc2)cn3-c2ccccc2)cc1 | 107
CCC(C)NS(=O)(=O)c1cc(-c2nnc(C)o2)cs1 (centres undefined) | 103
Cc1ccc(S(=O)(=O)Nc2cccc(C(=O)N3CCCC(C(=O)NCC4CCCO4)C3)c2)cc1 (centres undefined) | 106
CC1CCN(c2ncc3c(n2)CCC(C(=O)N2CCOCC2)C3)CC1 (centres undefined) | 102
CCOc1ccc(-c2cn3nc(-c4ccc(Br)cc4)n4c3c2CCCC4)cc1 | 102
COc1ccc(-c2cc(-c3ccccc3)nc(SCC(=O)O)c2C#N)cc1 | 120
CCn1cc(CN2CCC(C(=O)NC3CC3)CC2)c2cc(OC)ccc21 | 100

# In the list so far, 8 contain fluorine.
SMILES | GIV Gai3 FP
O=S(=O)(c1cccn2c(SCc3c(F)cccc3Cl)nnc12)N1CCCC1 | 104
Cn1c(SCCOc2ccccc2F)nnc1-c1ccc2c(c1)OCCCO2 | 103
Fc1cc(F)cc(-c2noc3ncnc(NC4CC4)c23)c1 | 103
COc1ccc(C2CC(C(F)(F)F)n3ncc(C(=O)N4CCN(c5ccccc5OC)CC4)c3N2)cc1OC (centres undefined) | 105
CCOC(=O)C1=C(CSc2nc(C)cc(C)c2C#N)OC(N)=C(C#N)C1c1ccc(F)cc1 (centres undefined) | 107
CCCc1cc(C2CCCN2C(=O)Cn2nc(C(F)(F)F)c3c2CCCC3)no1 (centres undefined) | 105
Cn1nc(C(=O)N2CCCC(C(=O)NC3CC3)C2)c2c1CCN(C(=O)c1c(F)cccc1F)C2 (centres undefined) | 105
Cc1ccc(NC(=O)c2cn(C)c3c(c(C)nn3-c3ccc(F)cc3)c2=O)cc1F | 107

# More entries follow.
SMILES | GIV Gai3 FP
CC1CC(C)CN(CC2CCN(C(=O)Nc3ccc4c(c3)OCCO4)CC2)C1 (centres undefined) | 99
CCCC(=O)N1CCN(c2cc(=O)n(C(C)C)c(=O)n2C(C)C)CC1 | 103
Cc1nnc(-c2coc(S(=O)(=O)N3CCCCC3)c2)o1 | 100
CCOCCn1cnc2sc(C(=O)N3CCCc4ccccc43)c(C)c2c1=O | 108
O=C1/C(=C/c2ccc([N+](=O)[O-])cc2)C=C(c2ccccc2)N1c1ccc(Cl)cc1Cl | 109
O=C(CCC(=O)N1CCc2cc(S(=O)(=O)N3CCc4ccccc4C3)ccc21)N1CCCC1 | 100
COc1ccc(CNC(=O)CCc2nc(N3CCCCC3)c3c(-c4ccc(F)cc4)noc3n2)cc1 | 100
c1cc(-c2noc(C3CCOC3)n2)cc(N2CCOCC2)n1 (centres undefined) | 99
COc1cccc(C2C(N3C(=O)c4ccccc4C3=O)C(=O)N2c2cccc(C(F)(F)F)c2)c1 (centres undefined) | 117
Cc1ccc(Cc2nnc(-c3ccc(NS(=O)(=O)c4ccc(C(C)(C)C)cc4)cc3)o2)cc1 | 105
COc1ccc(C(=O)Nc2cnc3oc(-c4ccccc4)nn3c2=O)cc1OC | 101
Cc1ccc(Cl)cc1-n1c(SCC(=O)NCCc2ccc(S(N)(=O)=O)cc2)nc2n[nH]c(C)c2c1=N | 106
CCOC(=O)c1cc2c(nc1NC(=S)NC(=O)c1ccccc1)CC(C)(C)OC2 | 106
CCOC(=O)c1[nH]c(C)c(CCC(=O)N2CCCC(C(=O)NCCN3CCN(C)CC3)C2)c1C (centres undefined) | 104
c1ccc(-c2nc(-c3ccc4nncn4c3)no2)cc1 | 99
CCCn1c(CCc2ccccc2NS(=O)(=O)c2ccc3c(c2)OCCO3)nc2ccccc21 | 105
O=c1ccn(-c2ccc(Cl)cc2)nc1-c1nc(-c2ccc(F)cc2)no1 | 102
O=C(c1cnc(N2CCCCC2)c2ccccc12)N1CCCC1 | 106
CCCCOC(=O)c1ccc(-n2c3nc(=O)[nH]c(=O)c-3cc3ccccc32)cc1 | 112
CN(C)C(=O)c1ccc2c(c1)nc(CN1CCN(S(=O)(=O)c3ccc(F)c(Cl)c3)CC1)n2C | 104
CC1CCCN(S(=O)(=O)c2cc(-c3nnc(C4CC4)o3)co2)C1 (centres undefined) | 106
CCc1nc2nc3c(c(=O)n2[nH]1)CCC3 | 101
O=C(NCc1ccccc1)c1ccc2c(c1)[nH]c(=S)n1c3ccccc3nc21 | 103
O=C1C2C3c4ccccc4C(C=Nc4cccc(Br)c4)(c4ccccc43)C2C(=O)N1c1ccccc1 (centres undefined) | 107
O=C(Oc1ccc2cc(-c3nc4ccccc4s3)c(=O)oc2c1)c1ccccc1 | 139
NC(=O)C1CCN(Cn2nc(-c3ccccc3Cl)n(-c3ccccc3)c2=S)CC1 | 100
CCOC(=O)CSc1nc2cc(C(=O)N3CCC4(CC3)OCCO4)ccc2c(=O)n1Cc1ccccc1OC | 101
O=C(NC1CCCC1)C1CCCN(S(=O)(=O)Cc2ccccc2)C1 (centres undefined) | 97
Cc1c(N=Cc2ccc(OC(=O)/C=C/c3ccc(Cl)cc3)cc2)c(=O)n(-c2ccccc2)n1C | 104
CCOc1cc(C2C(C(=O)OCC(C)C)=C(C)NC3=C2C(=O)CC(c2cccs2)C3)cc([N+](=O)[O-])c1O (centres undefined) | 113
COc1ccc(CCNC(=O)c2ccc3c(=O)n(-c4ccc(OC)c(OC)c4)c(=S)[nH]c3c2)cc1OC | 108
Oc1ccc(Br)cc1CN1CCCCC1 | 111
Cc1ccc(Nc2nc(NC3CCCC3)nc3c2cnn3-c2ccccc2)cc1 | 97
O=C(C1CCCN(S(=O)(=O)Cc2cccc(Cl)c2)C1)N1CCN(S(=O)(=O)c2ccccc2)CC1 (centres undefined) | 103
Cc1c(Cl)cccc1NC(=O)CCc1nc(CSc2n[nH]c(-c3ccccc3)n2)no1 | 104
COc1cc(Br)c(C=Nc2c(C)n(C)n(-c3ccccc3)c2=O)cc1OC | 130
Cc1noc(C)c1CNC(=O)c1ccc(CN2C(=O)C3CCCN3C(=O)c3ccccc32)cc1 (centres undefined) | 109
CCCCCCCCCCCCCCCC(=O)OCC1OC2OC(C)(C)OC2C2OC(C)(C)OC12 (centres undefined) | 106
CCCCOc1ccc(S(=O)(=O)n2nnc3ccccc32)cc1 | 119
COc1cc(-n2cnc3cc(C(=O)N4CCC5(CC4)OCCO5)ccc32)cc(OC)c1OC | 102
CCSc1nccc2c1ccn2CC(=O)NCc1cc(OC)ccc1OC | 106
N#Cc1c2c(c(NCCCO)n3c1nc1ccccc13)CCC2 | 108
CC1(C)CC2(CCCN(Cc3nc4c(c(=O)[nH]3)C3(CCCCC3)Cc3ccccc3-4)C2)CCO1 (centres undefined) | 99
CCOC(=O)C[N+](CC)(CC)CCOc1cc2c(cc1Cl)-c1cc(Cl)c(OCC[N+](CC)(CC)CC(=O)OCC)cc1C2=O | 115
Cc1ccc2c(c1)C(c1ccccc1Cl)CC(=O)N2 (centres undefined) | 107
Cc1ccc2nc(-n3nc(C)c4c3NC(=O)CC4c3ccc4c(c3)OCO4)sc2c1 (centres undefined) | 101
Cc1ccc(Cl)cc1NC(=O)CCc1nc(CSc2nc3ccccc3[nH]2)no1 | 103
O=C(Nc1ccc(-c2noc(COc3ccccc3Cl)n2)cc1)c1ccco1 | 97
COc1cc(/C=C2/C(=O)N(c3ccc(S(N)(=O)=O)cc3)N=C2C)ccc1OC(=O)c1cccs1 | 104
Cc1[nH]c(C)c(S(=O)(=O)NC2CC2)c1-c1nnc(C2CCC2)o1 | 105

# Going on with the list.
SMILES | GIV Gai3 FP
COc1ccccc1-n1c(=O)c2c3c(sc2n(Cc2ccccc2C)c1=O)CN(C(C)=O)CC3 | 107
Cc1ccc(-c2nnc(-c3cccc(S(=O)(=O)Nc4ccccc4O)c3)o2)cc1 | 105
CCOc1ccc(S(=O)(=O)N2CCN(c3ccc(OC)cc3)CC2)c2cccnc12 | 116
CC(=O)C1=NN(c2ccccc2)C2(S1)c1ccccc1C(c1ccc(C(C)(C)C)cc1)=NN2c1ccccc1 (centres undefined) | 102
Cc1ccc(CNS(=O)(=O)c2cc3c(=O)n(C)nc(C)n3c2)o1 | 101
Cn1c(=O)n(CC(=O)N2CCCC2)c(=O)c2cc(S(=O)(=O)NCc3ccccc3Cl)ccc21 | 105
CC(=O)N1N=C2CC(C)(C)OCC2C1c1ccccc1 (centres undefined) | 109
Cc1ccc(C)c(S(=O)(=O)N2CCCC2c2cc(C(C)C)no2)c1 (centres undefined) | 112
Cc1nnc2ccc(NC(C)C)nn12 | 115
N#CCSc1nc(NCc2ccc3c(c2)OCO3)c2ccccc2n1 | 106
CCOC(=O)c1cn[nH]c1/N=C(\C)c1c(C)[nH]n(-c2nc3ccccc3s2)c1=O | 100
CC1CCN(S(=O)(=O)c2c[nH]c(-c3nnc(C(=O)N4CCOCC4)o3)c2)CC1 | 102
COc1ccc(-c2cc(C(=O)NCc3ccccc3)c3c(-c4ccccc4)[nH]nc3n2)cc1OC | 100
CN1/C(=C2/SC(=S)NC2=O)Sc2ccccc21 | 117
COc1cc(C2Nc3ccc(F)cc3[C@H]3OCCC[C@@H]23)cc(Br)c1OC (some centres undefined) | 97
Fc1ccc(-n2ncc3c(Nc4ccc(Br)cc4)ncnc32)cc1 | 105
Cc1cccc(-c2nn3c(=O)cc(CN4CCN(C(=O)c5cccc(Br)c5)CC4)nc3s2)c1 | 99
